c-Myc SMM = binders of human c-Myc | P01106 | calls only | AID 624141 | small molecule microarray, His-c-Myc binding, anti-His fluorescence | actives 1.5% (n = 17,000);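 active = spot fluorescence over background with P-value below 7% in all four replicate spots, showing protein binding; compounds were printed on slides so no solution concentration is given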;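 also: score is binary with 100 for all four spots passing and 0 otherwise; about 2 pmol printed per array spot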
Target sequence (P01106 whole entry, looked up): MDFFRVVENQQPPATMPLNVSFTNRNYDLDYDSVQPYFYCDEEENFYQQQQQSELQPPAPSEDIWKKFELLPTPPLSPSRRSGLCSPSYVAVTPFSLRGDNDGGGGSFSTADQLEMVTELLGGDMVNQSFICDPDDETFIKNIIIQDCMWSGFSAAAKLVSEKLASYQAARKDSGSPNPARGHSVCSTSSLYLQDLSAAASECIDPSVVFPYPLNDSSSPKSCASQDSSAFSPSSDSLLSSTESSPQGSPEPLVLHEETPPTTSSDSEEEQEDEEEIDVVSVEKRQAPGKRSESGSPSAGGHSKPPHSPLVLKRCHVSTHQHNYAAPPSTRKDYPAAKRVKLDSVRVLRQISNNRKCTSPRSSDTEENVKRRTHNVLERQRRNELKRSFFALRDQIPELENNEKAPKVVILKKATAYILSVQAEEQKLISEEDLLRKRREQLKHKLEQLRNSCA
STAT3 SMM = STAT3 (human) binding. AID 624138. Small molecule microarray, His-STAT3 binding, anti-His fluorescence. actives 0.2% (n = 17,000). calls only. P40763;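 active = compounds whose four printed spots each show fluorescence over background unusually high for their array block, chance value under 7%; compounds were printed on slides so no solution concentration is given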;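 also: about 2 pmol printed per array spot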
ID4 binder = binders of human ID4 protein; P47928; small molecule microarray, Flag-ID4 binding, fluorescence F/B; calls only; actives 1.2% (n = 31,000); AID 624137;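 active = spot signal over background at p below 0.07 in all four prints; compounds were printed on slides so no solution concentration is given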;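 also: a binder raises fluorescence above local background on the spot; about 2 pmol printed per array spot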
Target sequence (P47928 whole entry, looked up): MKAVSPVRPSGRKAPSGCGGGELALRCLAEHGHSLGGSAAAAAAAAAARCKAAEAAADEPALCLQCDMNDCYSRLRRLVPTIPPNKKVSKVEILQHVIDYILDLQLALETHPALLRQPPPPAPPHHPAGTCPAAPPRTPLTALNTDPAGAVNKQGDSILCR
p53 mut binder = binds human mutant p53 on microarray; small molecule microarray binding, anti-GST fluorescence; calls only; AID 624136; actives 0.4% (n = 17,000);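 active = compounds whose four printed spots each glow above background more than chance allows, each with a p-value under 7%; compounds were printed on slides so no solution concentration is given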;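 also: about 2 pmol printed per array spot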
Calls only; i = inactive; · = not tested or not shown; + = active, no number. These rows are one share of the data (hit frequency here may not be typical).

structure	c-Myc SMM	STAT3 SMM	ID4 binder	p53 mut binder
C[C@@H]1CCCCO[C@H](CN(C)C(=O)c2ccncc2)[C@H](C)CN([C@@H](C)CO)C(=O)c2cc(NS(C)(=O)=O)ccc2O1	i	i	i	i
CCO[C@H]1OC(C(=O)N2CCOCC2)=C[C@@H](C2CCCCC2)[C@@H]1CCCO	i	i	·	i
COc1ccc(NC(=O)Nc2ccc3c(c2)C(=O)N([C@H](C)CO)C[C@H](C)[C@H](CN(C)S(=O)(=O)c2cccs2)OCCCC[C@@H](C)O3)cc1	i	i	·	i
C[C@H](CO)N1C[C@H](C)[C@H](CN(C)C(=O)Nc2cccc3ccccc23)Oc2ccc(NC(=O)CCN3CCOCC3)cc2CC1=O	i	i	i	i
Cc1noc(C)c1S(=O)(=O)N(C)C[C@@H]1OCCCC[C@@H](C)Oc2ccc(NS(C)(=O)=O)cc2C(=O)N([C@@H](C)CO)C[C@@H]1C	i	i	i	i
C[C@H]1CN([C@@H](C)CO)C(=O)c2cccc(NC(=O)NC3CCCCC3)c2O[C@H]1CN(C)C(=O)Nc1ccccc1	i	i	i	i
COc1ccc([Si](C)(C)[C@@H]2[C@@H](CCn3cc(CCO)nn3)O[C@]3(C(=O)N(C)c4ccccc43)[C@H]2C)cc1	i	i	i	i
COc1ccc(Cl)cc1NC(=S)NCc1ccccn1	i	i	i	i
C[C@H](CO)N1C[C@H](C)[C@@H](CN(C)Cc2ccncc2)OCc2cnnn2CCCC1=O	i	i	i	i
COc1cc2c(cc1OC)CN(C(=O)CSc1n[nH]c(N)n1)CC2	i	i	+	i
CSC(=O)OCC1=C[C@H](O)[C@@H]2C(C(=O)O)=CO[C@@H](OC3OC(CO)C(O)C(O)C3O)[C@H]12 (stereo partly drawn)	i	i	i	i
CCOc1ccc(NC(=O)CSc2nc(C)nc3sc4c(c23)CCCC4)cc1	i	i	i	i
C[C@@H]1CN([C@@H](C)CO)C(=O)Cc2cc(NC(=O)Nc3ccc(F)cc3)ccc2O[C@H]1CN(C)CC1CC1	i	i	i	i
Cc1cc(O)cc2c(=O)oc(CC(C)O)cc12 (stereo not drawn)	i	i	i	i
C=CC(C)(C)[C@@]12C[C@H]3C(=O)Nc4ccccc4C(=O)N3[C@@H]1Nc1ccccc12	i	i	·	i
C[C@H]1CN([C@@H](C)CO)C(=O)c2cc(NC(=O)Nc3cccc4ccccc34)ccc2O[C@H]1CN(C)S(=O)(=O)c1cccs1	i	i	·	i
C[C@@H]1CCCCO[C@@H](CN(C)C)[C@@H](C)CN([C@H](C)CO)C(=O)c2cc(NS(=O)(=O)c3ccc(Cl)cc3)ccc2O1	i	i	i	i
CCO[C@H]1OC(C(=O)N2CCN(Cc3ccc4c(c3)OCO4)CC2)=C[C@@H](c2csc3ccccc23)[C@@H]1CCCO	i	i	·	i
C[C@H](CO)N1C[C@H](C)[C@@H](CN(C)S(=O)(=O)c2cn(C)cn2)OCCCC[C@H](C)Oc2ccc(NC(=O)Cc3ccccc3)cc2C1=O	i	i	·	i
CNCC(O)c1ccc(OC(=O)C(C)(C)C)c(OC(=O)C(C)(C)C)c1 (stereo not drawn)	i	i	i	i
C[C@H](CO)N1C[C@H](C)[C@@H](CN(C)C)Oc2c(NS(=O)(=O)c3cccs3)cccc2C1=O	i	i	i	i
Cc1ccccc1NS(=O)(=O)c1cc(C(=O)NCC2CCCO2)ccc1C (stereo not drawn)	i	i	i	i
COc1ccc(N(CC(=O)Nc2cccnc2)S(C)(=O)=O)cc1	i	i	i	i
COc1ccc(S(=O)(=O)N(C)C[C@@H]2Oc3ncc(-c4cccc(C(F)(F)F)c4)cc3C(=O)N([C@H](C)CO)C[C@@H]2C)cc1	i	i	i	i
CC(C)NC(=O)N(C)C[C@@H]1OCCCC[C@@H](C)Oc2ccc(NC(=O)Cc3ccccc3)cc2C(=O)N([C@H](C)CO)C[C@H]1C	i	i	i	i
C[C@@H]1CN([C@H](C)CO)C(=O)c2cc(NC(=O)CCCN(C)C)ccc2O[C@H]1CN(C)Cc1ccc2c(c1)OCO2	i	i	i	i
C[C@@H]1CCCCO[C@H](CN(C)C(=O)Nc2ccccc2)[C@@H](C)CN([C@@H](C)CO)C(=O)c2cc(NC(=O)Cc3ccccc3)ccc2O1	i	i	i	i
Cc1noc(C)c1NC(=O)Nc1ccc2c(c1)C(=O)N([C@H](C)CO)C[C@@H](C)[C@@H](CN(C)C(=O)Nc1c(C)noc1C)O2	i	i	i	i
C[C@@H]1CN([C@H](C)CO)C(=O)Cc2cc(NC(=O)Cc3cn(C)c4ccccc34)ccc2O[C@H]1CN(C)C(=O)Nc1ccccc1	i	i	i	i
COc1cc(OC)cc(-c2nnc(SCC(=O)Nc3cc(C(F)(F)F)ccc3Cl)o2)c1	i	i	i	i
C[C@@H]1CN([C@H](C)CO)C(=O)c2cc(N(C)C)ccc2O[C@@H]1CN(C)S(=O)(=O)c1cn(C)cn1	i	i	i	i
O=C1c2ccccc2[C@@]2(Cc3ccccc3N(Cc3ccccc3)C2=O)[C@H](c2ccc(CO)cc2)N1C1CCCCC1	i	i	i	i
C[C@H]1CN([C@@H](C)CO)C(=O)Cc2cc(NC(=O)C3CC3)ccc2O[C@H]1CN(C)C	i	i	i	i
C[C@H]1CN([C@@H](C)CO)C(=O)c2cccc(NS(C)(=O)=O)c2O[C@H]1CN(C)C(=O)Nc1ccc2c(c1)OCO2	i	i	·	i
C[C@@H]1CN([C@@H](C)CO)C(=O)c2cc(NC(=O)Cn3cnnn3)ccc2O[C@@H]1CN(C)Cc1ccccc1	i	i	·	i
C[C@@H]1CN([C@@H](C)CO)C(=O)c2cccc(NC(=O)NC3CCCCC3)c2O[C@@H]1CN(C)S(=O)(=O)c1ccc(Cl)cc1	i	i	i	i
C[C@@H]1CCCCO[C@@H](CN(C)C(=O)c2ccncc2)[C@H](C)CN([C@H](C)CO)C(=O)c2cc(NS(C)(=O)=O)ccc2O1	i	i	i	i
Cc1ccc(NC(=O)CNS(=O)(=O)c2ccccc2)cc1Cl	i	i	i	i
O=C(CSc1ccccn1)Nc1cccc(F)c1	i	i	i	i
C[C@H](CO)N1C[C@H](C)[C@H](CN(C)C(=O)NC2CCCCC2)Oc2c(NC(=O)c3cnccn3)cccc2C1=O	i	i	i	i
CCCc1nc(C(C)(C)O)c(C(=O)OCc2oc(=O)oc2C)n1Cc1ccc(-c2ccccc2-c2nn[nH]n2)cc1	i	i	i	i
C[C@@H]1CN([C@@H](C)CO)C(=O)c2cc(NC(=O)c3ccncc3)ccc2O[C@@H](C)CCCCO[C@@H]1CN(C)Cc1ccncc1	i	i	i	i
O=C(COc1ccc(Cl)cc1Cl)Nc1ccc(Br)cc1C(=O)O	i	i	i	i
C[C@@H]1CN([C@H](C)CO)C(=O)c2cccc(NS(C)(=O)=O)c2O[C@H]1CN(C)S(=O)(=O)c1cccs1	i	i	i	i
C[C@@H]1CN([C@@H](C)CO)C(=O)c2cccc(NC(=O)c3ccncc3)c2O[C@@H]1CN(C)Cc1ccc(Cl)c(Cl)c1	i	i	i	i
Cc1cccc(-n2c(SCC(N)=O)nnc2-c2ccncc2)c1C	i	i	i	i
CC1CCC2C(C)(C)C(=O)CC[C@]2(C)C12Cc1c(O)cc3c(c1O2)CN(C(CCC(=O)O)C(=O)O)C3=O (stereo partly drawn)	i	i	i	i
C[C@H]1CN([C@@H](C)CO)C(=O)c2cc(NC(=O)NC3CCCCC3)ccc2O[C@@H]1CN(C)C(=O)Nc1ccc(F)cc1	i	i	i	i
CCN(CC(=O)Nc1ccccc1C)S(=O)(=O)c1ccc(Br)cc1	i	i	i	i
C[C@@H]1CN([C@H](C)CO)C(=O)c2cccc(NC(=O)c3nc4ccccc4s3)c2O[C@H]1CN(C)C(=O)Nc1ccc(C(F)(F)F)cc1	i	i	i	i
Cc1noc(C)c1NC(=O)N(C)C[C@@H]1Oc2ccc(N(C)C)cc2CC(=O)N([C@@H](C)CO)C[C@@H]1C	i	i	i	i
CC(C)(C)NC[C@@H](O)COc1cccc2c1CCCC2=O	i	i	i	i
c1ccc(Cn2ccnc2SCc2nnc(-c3ccccc3)o2)cc1	+	i	i	+
COc1ccc(S(=O)(=O)N(C)C[C@H]2Oc3ccc(NC(=O)CCCN(C)C)cc3C(=O)N([C@@H](C)CO)C[C@H]2C)cc1	i	i	i	i
C[C@@H]1CN([C@H](C)CO)C(=O)Cc2cc(NC(=O)Nc3cccc4ccccc34)ccc2O[C@H]1CN(C)CC1CC1	i	i	i	i
COC(=O)C(C)N(c1ccc(OC)cc1)S(C)(=O)=O (stereo not drawn)	i	i	i	i
CC(C)NC(=O)N(C)C[C@@H]1Oc2c(NS(=O)(=O)c3ccccc3)cccc2C(=O)N([C@@H](C)CO)C[C@H]1C	i	i	i	i
C[C@@H]1CN([C@@H](C)CO)C(=O)c2cccc(NC(=O)c3ccncc3)c2O[C@H]1CN(C)Cc1ccc(Oc2ccccc2)cc1	i	i	i	i
Cc1noc(C)c1S(=O)(=O)N(C)C[C@@H]1Oc2ccc(NC(=O)C3CC3)cc2CC(=O)N([C@@H](C)CO)C[C@@H]1C	i	i	·	i
C[C@@H]1CN([C@@H](C)CO)C(=O)Cc2cc(NC(=O)Nc3cccc4ccccc34)ccc2O[C@@H]1CN(C)S(=O)(=O)c1cn(C)cn1	i	i	i	i

Random excerpt: 2 entries already listed.
structure	c-Myc SMM	STAT3 SMM	ID4 binder	p53 mut binder
C[C@@H]1CN([C@H](C)CO)C(=O)c2cc(N(C)C)ccc2O[C@@H]1CN(C)S(=O)(=O)c1cn(C)cn1	i	i	i	i
C[C@@H]1CN([C@@H](C)CO)C(=O)c2cccc(NC(=O)c3ccncc3)c2O[C@H]1CN(C)Cc1ccc(Oc2ccccc2)cc1	i	i	i	i

(next part)
structure	c-Myc SMM	STAT3 SMM	ID4 binder	p53 mut binder
CCc1cccc(NC(=O)O[C@H]2[C@H](OC(=O)Nc3ccccc3)[C@@H](OC(=O)Nc3ccccc3)[C@@H](OC)O[C@@H]2CO)c1	i	i	·	i
C#CCN1C(Cc2ccccc2)C(=O)O[C@H](C2CCCCC2)[C@@H]1/C=C/C1CC1 (stereo partly drawn)	i	i	i	i
C[C@H](CO)N1C[C@H](C)[C@H](CN(C)C(=O)NC2CCCCC2)Oc2ccc(NC(=O)Cc3ccccc3)cc2C1=O	i	i	i	i
COC(=O)c1ccccc1NC(=O)C1CCCN(S(C)(=O)=O)C1 (stereo not drawn)	i	i	i	i
C#CCNC(=O)C1=C[C@@H](c2cn(C(C)=O)c3ccccc23)[C@H](CCCO)[C@@H](OCC)O1	i	i	i	i
C[C@@H]1CCCCO[C@@H](CN(C)C(=O)CCCN(C)C)[C@@H](C)CN([C@H](C)CO)C(=O)c2cc(NC(=O)c3ccncc3)ccc2O1	i	i	i	i
C[C@@H]1CCCCO[C@@H](CN(C)C(=O)C2CCCCC2)[C@H](C)CN([C@H](C)CO)C(=O)c2cc(NS(=O)(=O)c3cccs3)ccc2O1	i	i	i	i
COc1ccc(CN(C)C[C@@H]2Oc3c(NC(=O)c4cc(C)nn4C)cccc3C(=O)N([C@@H](C)CO)C[C@H]2C)cc1	i	i	i	i
O=C(O)C1=C[C@H](c2ccc(C(F)(F)F)cc2)C[C@H](OCc2ccc(CO)cc2)O1	i	i	i	i
COc1ccc(NC(=O)Nc2ccc3c(c2)C(=O)N([C@H](C)CO)C[C@@H](C)[C@@H](CN(C)S(=O)(=O)c2ccc(F)cc2)O3)cc1	i	i	·	i
C[C@H]1CN([C@@H](C)CO)C(=O)Cc2cc(N(C)C)ccc2O[C@H]1CN(C)C(=O)Nc1cccc2ccccc12	i	i	i	i
CC(C)NC(=O)Nc1ccc2c(c1)C(=O)N([C@H](C)CO)C[C@H](C)[C@H](CN(C)C(=O)c1ccccc1)OCCCC[C@H](C)O2	i	i	i	i
Cc1ccc(S(=O)(=O)N2CCN(Cc3cccc(OCCO)c3)CC2)cc1	i	i	+	i
COC(=O)c1ccc(COc2nc(C)cc(C)c2C#N)o1	i	i	i	i
C[C@H]1CN([C@@H](C)CO)C(=O)c2cccc(NC(=O)Nc3ccc(F)cc3)c2O[C@@H]1CN(C)Cc1ccc(C(F)(F)F)cc1	i	i	i	i
COc1ccc(S(=O)(=O)Nc2ccc3c(c2)C(=O)N([C@@H](C)CO)C[C@@H](C)[C@H](CN(C)C)O3)cc1	i	i	i	i
O=C(O)CCSc1nnc(-c2ccncc2)n1-c1ccccc1	i	i	i	i
COc1cc(OC)c(NC(=O)CN2C(=O)c3ccccc3C2=O)cc1Cl	i	i	i	i
COc1ccc2nc(SCC(=O)Nc3ccc(I)cc3)[nH]c2c1	i	i	i	i

For reference, part of the list above.
structure	c-Myc SMM	STAT3 SMM	ID4 binder	p53 mut binder
COc1cc(OC)c(NC(=O)CN2C(=O)c3ccccc3C2=O)cc1Cl	i	i	i	i
COc1ccc2nc(SCC(=O)Nc3ccc(I)cc3)[nH]c2c1	i	i	i	i
